Source: PubChem BioAssay (several laboratories)
MT1-MMP act inh: inhibitors of human MT1-MMP activation. P50281. HT1080 RFP-PRO-GFP cells, GFP/RFP ratio fluorescence, overnight; percent of plate control window, DMSO zero. GFP/RFP ratio change, % at 20 µM. actives 0.061% (n = 360,000). AID 651647;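 active means GFP/RFP ratio change of at least 30% with cell ATP level not reduced by more than half and red fluorescence within 50% of control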; further: strong numbers were not always called active
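Test system: HT1080 cells expressing an RFP-PRO-GFP fluorescent reporter construct / Compound dosing: single-point 20 µM compound, 1% DMSO / Schedule: cells overnight before dosing, compound overnight, 37 °C, 5% CO2 / Evaluation: GFP/RFP fluorescence ratio / Control set: DMSO and RFP-L50D-GFP cell wells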
CSC inhib: cancer stem cell inhibition | inhibition, % at 7.5 µM | actives 1.1% (n = 300,000) | cancer stem cell-like cells viability, luminescence;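 active means mean at 75% or more and at least half the replicates too; tested in HMLE shEcad cells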;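 further: 0% = median of negative and 100% = median of positive control wells; the first replicate is given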
Env fusion inh: HIV envelope-mediated fusion inhibition. inhibition, % at 12.3 µM. AID 651610. actives 1.1% (n = 360,000). HeLa-JRFL Env/CEM21 cell fusion, luciferase;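 active means mean replicate inhibition score of at least 50 and every replicate individually at or above 50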;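 further: 0% = plate neutral controls and 100% = maraviroc near 300 nM; one replicate is shown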
eIF4H inh: inhibitors of RNA binding by human eIF4H. AID 2012. actives 0.94% (n = 290,000). inhibition, % at 35 µM. eIF4H fluorescence polarization binding assay;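 active means 50% or more with normal probe brightness, or confirmed in later tests; about a fifth of its hits are not listed in these tables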;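 further: calls also rest on retests at 20 µM and on dose response follow-up; 0% = protein and probe with vehicle and 100% = probe without protein; strong numbers were not always called active; many hits fall short of the cut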
UUG fidelity: alters start codon recognition fidelity in yeast; activity score, % at 18.7 µM; S. cerevisiae UUG-firefly luciferase reporter, luminescence/redox ratio; actives 0.13% (n = 350,000);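 active means replicate mean at a twofold rise or more, about +100% in these data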;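 further: firefly luciferase made from a UUG start codon reports start codon fidelity; reporter light over untreated wells divided by growth signal over untreated wells; some hits fall short of that in this replicate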
Rce1 inhib: blocks yeast Ras-converting enzyme; Q03530; yeast membranes, quenched prenylated peptide cleavage fluorescence; calls only; actives 0.27% (n = 290,000);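 active means fall in fluorescence gain of 50% or more versus controls, with final raw signal at or below 3038400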;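 further: plate controls were neutral control wells for no effect and wells lacking membranes for full effect; tested at 10 µM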
PABP polyA inh: blocks human PABP binding to poly(A) RNA; P11940; AID 2014; fluorescence polarization; actives 1% (n = 290,000); inhibition, % at 35 µM;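 active means 50% or more with normal probe brightness, or confirmed in later tests; about a fifth of its hits are not listed in these tables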;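 further: calls also rest on retests at 20 µM and on dose response follow-up; controls were probe without protein and protein plus probe with vehicle; some compounds called inactive have numbers as strong as hits; many hits fall short of the cut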
Target sequence (P11940 whole entry, looked up): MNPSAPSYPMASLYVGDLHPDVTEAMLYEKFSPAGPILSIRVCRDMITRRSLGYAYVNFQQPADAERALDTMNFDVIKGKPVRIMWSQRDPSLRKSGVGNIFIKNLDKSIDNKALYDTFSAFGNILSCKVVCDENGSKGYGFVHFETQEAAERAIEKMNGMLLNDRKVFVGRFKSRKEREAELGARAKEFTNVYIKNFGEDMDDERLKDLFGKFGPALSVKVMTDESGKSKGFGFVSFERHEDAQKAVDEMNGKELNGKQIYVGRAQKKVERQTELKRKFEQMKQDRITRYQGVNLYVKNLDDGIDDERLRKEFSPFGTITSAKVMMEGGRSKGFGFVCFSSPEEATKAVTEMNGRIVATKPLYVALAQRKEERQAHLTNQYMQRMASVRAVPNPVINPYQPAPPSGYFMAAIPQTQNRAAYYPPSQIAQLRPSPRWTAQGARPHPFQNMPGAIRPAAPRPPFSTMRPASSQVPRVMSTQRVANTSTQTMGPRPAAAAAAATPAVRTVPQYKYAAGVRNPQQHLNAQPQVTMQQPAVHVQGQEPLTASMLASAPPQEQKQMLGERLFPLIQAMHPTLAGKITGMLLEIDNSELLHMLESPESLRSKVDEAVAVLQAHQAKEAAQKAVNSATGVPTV
MT1-MMP act inh RFP: further read-out of MT1-MMP act inh, marked with its call; RFP signal change, %; measured here: RFP expression control read;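 0 = vehicle wells; hits needed this value within 50% of zero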
An asterisk follows results filed as active; i = inactive; x = no result given; & = joins results of further samples. An excerpt; count on the stated rates, not on these rows.

SMILES	MT1-MMP act inh	MT1-MMP act inh RFP	CSC inhib	Env fusion inh	eIF4H inh	UUG fidelity	Rce1 inhib	PABP polyA inh
Cc1cc(Cl)cc(Cl)c1OCCOc1cccc2cccnc12	0.7	-2.0	13.3	x	-4.9	x	i	-2.9
CCNc1nc(NC(C)CC)nc(Oc2ccc(OCC)nn2)n1 (stereo not drawn)	9.2	5.6	7.3	4.9	0.9	-2.5	i	6.6
CCOCCCNC(=O)CCn1ccc2cc(S(=O)(=O)N3CCCC3)ccc21	-2.8	-0.4	-7.4	-1.3	6.3	-40.0	i	-8.1
COc1ccc(CN(C(=O)c2nsc(Cl)c2Cl)C(C(=O)NC2CCCC2)c2ccc(OC)cc2)cc1 (stereo not drawn)	-6.6	-6.1	1.9	14.2	3.4	x	i	5.3
CC(=O)Nc1cc(-c2cccc(F)c2)cn2c(-c3ccccc3)cnc12	1.8	1.1	x	-12.7	x	-21.2	x	x
COC(=O)c1cn(C(=O)c2ccccc2F)nc1N	-2.7	1.4	-6.5	x	6.3	-9.3	i	-2.9
Cc1ccc(N(CC(=O)NCc2ccc(Cl)cc2)S(C)(=O)=O)cc1	0.9	0.2	-7.1	-3.7	9.9	-20.8	i	9.0
Cc1ccc(CNc2nc(C)cs2)cc1	6.4	7.3	-7.4	-22.4	-2.6	-21.0	x	11.2
CC(C)(C)NC(=O)C(=O)NNC(=O)COc1ccccc1	3.9	4.4	-8.9	1.1	3.9	x	i	3.8
CCc1ccccc1NC(=O)CN1CCN(C(=O)C(C)NC(=O)c2ccc(Cl)cc2)CC1 (stereo not drawn)	2.3	-2.8	x	-6.2	x	-7.1	x	x
CC(C)(C)c1cc(N)n(-c2ccc(C(=O)O)cc2)n1	1.1	3.5	-6.5	-4.1	-2.3	x	i	10.6
CCn1c(SCc2ccc(F)cc2)nnc1C1CCN(S(=O)(=O)c2ccc(OC)cc2)CC1	1.6	-9.0	11.1	41.9	-6.3	-7.1	i	0.6
O=C(COC(=O)c1cc([N+](=O)[O-])ccc1N1CCOCC1)Nc1ccc(Cl)cc1	4.9	-10.2	4.2	0.4	-14.7	1.5	i	-0.4
Cc1cc(-n2nc3ccccc3n2)c(O)c([N+](=O)[O-])c1	0.6	1.2	-7.4	-10.7	-12.2	-5.4	i	-6.5
CC(c1nnc(SCC(=O)Nc2cc([N+](=O)[O-])ccc2F)n1Cc1ccccc1)N(C)C (stereo not drawn)	1.6	-2.1	-26.8	1.1	33.3	-11.5	i	5.4
COc1ccc(CN(C)C(=O)c2ccc3c(=O)n4c(nc3c2)CCC4)c(OC)c1	3.6	2.0	-1.7	4.0	x	x	i	x
CCCCn1c(-c2c(Cl)c(C)nn2C)n[nH]c1=S	2.3	3.7	-11.8	10.5	-7.4	x	i	0.1
CC(C(=O)NC1C(=O)N2C(C(=O)O)=C(CSc3nnnn3C)CSC12)n1cc(Br)cn1 (stereo not drawn)	-2.2	6.4	-8.5	2.0	36.9	x	i	10.9
COc1cc(NC(=O)C2CCC(CNc3c(N4CCCCC4)c(=O)c3=O)CC2)cc(OC)c1 (stereo not drawn)	0.7	6.7	-1.3	19.5	-5.0	6.2	i	-4.4
Cc1csc(SCC(=O)Nc2sc3c(c2C#N)CCC3)n1	x	x	x	x	8.2	-9.3	i	6.9
Cc1ccc(S(=O)(=O)N2CCC3CC2c2cc(Cl)ccc23)cc1 (stereo not drawn)	0.2	-3.8	x	-1.5	x	-1.9	x	x
CCCc1nnc(N2C(=O)c3cccc4cccc(c34)C2=O)s1	-0.3	0.3	-8.6	x	-6.6	-16.3	i	1.7
Cc1cc(NS(=O)(=O)c2ccc(NC(=O)c3ccc(F)cc3)cc2)nc(C)n1	3.5	-0.1	-12.2	x	x	-22.9	x	x
C[C@@H]1CN([C@H](C)CO)C(=O)c2cc(Br)cnc2O[C@@H]1CN(C)C(=O)CC1CC1	3.0	5.1	x	23.4	x	6.0&-5.0	x	x
CCn1c(=NC(=O)C2COc3ccccc3O2)sc2c(OC)ccc(OC)c21 (stereo not drawn)	1.8	-0.5	4.9	-1.3	0.6	-9.4	i	-0.4

The list goes on:
SMILES	MT1-MMP act inh	MT1-MMP act inh RFP	CSC inhib	Env fusion inh	eIF4H inh	UUG fidelity	Rce1 inhib	PABP polyA inh
CCCc1ccc(OCC(O)CN2CCN(c3ccccc3)CC2)cc1 (stereo not drawn)	-0.9&1.0	-4.2&4.0	-10.3	23.0&-20.8	-8.5	14.0	i	-2.3
C=CCn1c(SCC(=O)C(C)(C)C)nnc1-c1cccs1	2.8	-3.4	-1.0	-1.7	8.1	-7.2	i	-1.4
COC(=O)[C@@H]1C[C@@H]2CC[C@@H](O)C[C@@H]2N1Cc1ccc(OC)cc1	-4.6	-2.5	-9.0	-8.9	3.8	-0.8	i	8.6
CC1(C)CC(=O)N(c2ccccc2)C1(C)O (stereo not drawn)	6.0	6.6	-9.0	-50.6	-4.3	-10.4	i	-1.5
COc1ccc(C2OC(=O)C(C)(C)C(=O)C2(C)C)cc1OC (stereo not drawn)	2.4	1.3	-7.7	-4.8	-4.3	-14.3	i	-2.3
COc1ccc(CCNC(=O)COC(=O)c2cnccn2)cc1	-2.0	2.2	-0.4	x	-7.7	-11.6	i	-2.1
COc1ccc(-n2c(=S)[nH]c3cc(C(=O)Nc4ccccc4OC)ccc3c2=O)cc1	x	x	-11.5	0.1	-0.3	x	i	-5.4
Cc1cc2nc(NCCCO)n(CC(=O)c3cc(C(C)(C)C)c(O)c(C(C)(C)C)c3)c2cc1C	-5.8	-7.8	75.1*	-29.9	x	2.8	x	x
O=C(CN(Cc1ccc(Br)cc1)S(=O)(=O)c1ccccc1)NCc1ccncc1	1.0	-3.7	7.3	21.5	-1.1	-8.6	i	6.2
CCOc1cc(S(=O)(=O)NCc2ccccc2)ccc1F	7.7	-0.3	13.4	x	4.1	-4.4	i	-1.7
CC(Sc1nnc(Cc2cccs2)n1C1CCCCC1)C(N)=O (stereo not drawn)	-9.4	-0.7	-8.1	x	-5.9	-21.4	i	-5.8
CCC(C)NC(=O)Nc1ccccc1F (stereo not drawn)	0.8	-0.7	-26.7	x	1.8	x	i	-9.8
CC(C)N(CC#CCC(O)(c1ccccc1)c1ccccc1)CCO	-3.9	-0.8	x	2.3	7.6	x	i	-8.2
Cc1ccc(S(=O)(=O)NC(=O)C2(C)CCN2C(=O)c2ccccc2)cc1 (stereo not drawn)	0.4	1.9	x	18.7	x	61.4	x	x
CN(c1ccc(C(=O)NCc2ccco2)cc1)S(C)(=O)=O	7.1	4.4	x	-31.3	-10.7	-4.3	i	-2.9
COc1ccc([C@@H]2C(C#N)=C(N)S[C@@H](c3ccccc3)[C@@H]2[N+](=O)[O-])cc1	1.6	0.7	x	22.8	2.8	-25.1	i	6.0
COc1cccc(-c2nnc(SCc3cccnc3)o2)c1	-0.2	-4.3	0.6	-21.4	1.9	-5.0	i	-7.1
CCCCCn1cnc2sc(-c3ccccc3)cc2c1=O	-3.7	-3.4	25.7	-150.7	-5.9	-31.2	i	-8.3
COc1cccc(C(=O)NC2CC3CCCC(C2)N3CC(=O)Nc2ccc(N(C)C)cc2)c1 (stereo not drawn)	1.6	-5.1	-8.7	-24.9	-8.5	-8.7	i	-5.9
Cc1cc2c(c(=O)n1Cc1ccccn1)C(c1ccc3c(c1)OCO3)C(C#N)=C(N)O2 (stereo not drawn)	-2.0	-0.2	-13.9	-16.1	-5.3	-16.8	i	-8.3
COc1cccc(C(=O)Nc2cccc(-c3nnc(-c4ccco4)o3)c2)c1	5.1	-7.4	11.4	x	-7.6	x	i	3.3
COc1cc(C(=O)NCC(=O)Nc2c(C)cccc2C)ccc1OCc1ccccc1	3.6	-2.6	x	-0.9	x	3.7	x	x
Nc1cc(=O)[nH]c(SCC(=O)Nc2ccccc2Sc2ccc(Cl)cc2)n1	-4.3	-26.8	-7.0	48.1	-8.9	x	i	49.3
O=C(NC1CCCC1)C(c1ccsc1)N(Cc1ccccc1)C(=O)Cc1cccs1 (stereo not drawn)	-31.9	-20.2	11.3	x	-11.4	23.2	i	-11.6
Cc1ccc(C(=O)N2CCN(Cc3nc4sc5c(c4c(=O)[nH]3)CCCC5)CC2)cc1	7.0	-6.7	2.6	-5.2	-5.4	0.5	i	-0.5

The results go on.
SMILES	MT1-MMP act inh	MT1-MMP act inh RFP	CSC inhib	Env fusion inh	eIF4H inh	UUG fidelity	Rce1 inhib	PABP polyA inh
COc1ccc2[nH]c(=O)c(CN(CCCN(C)C)C(=O)Nc3ccccc3)cc2c1	-3.1	0.4	-0.7	x	-2.9	-15.8	i	-3.7
O=C(CCSc1ccc(F)cc1)NNC(=O)c1ccccc1Cl	1.0	3.4	x	0.6	x	-8.9	x	x
Cc1cccn2cc(CCNS(=O)(=O)c3cccs3)nc12	-7.2	3.1	14.4	-2.6	6.6	17.5	i	-1.1
O=C(COC(=O)c1ccccc1-n1cnnn1)c1ccccc1	-2.7	-0.1	-5.0	-4.9	x	-2.0	i	x
COC(=O)/C=C1\N/C(=N/c2nc(C)c3cc(OC)ccc3n2)NC1=O	22.1	4.3	7.6	x	14.6	-11.4	x	-37.1
Cc1c(-c2ccccc2)n[nH]c1C(=O)NN	0.7	5.5	-1.0	-2.4	-8.1	x	i	2.3
COc1ccc(NCc2nnc(SCC(=O)Nc3cc(C(F)(F)F)ccc3Cl)o2)cc1	8.9	3.3	-0.5	-33.4	-6.5	x	i	8.9
O=C(NCc1ccccc1Cl)c1ccc(CSc2nc3ccncc3[nH]2)cc1	5.7	-4.2	1.2	19.0	0.0	-13.9	i	-4.2
COc1ccccc1C(=O)N1CCN(C(=O)c2oc3ccc(C)cc3c2C)CC1	-9.1	1.7	11.7	65.9*	4.9	0.0	i	-1.6
CCN(CC)C(=O)c1ccc2c(=O)n(CCOC)c(=S)[nH]c2c1	5.2	1.1	-4.8	-9.5	-10.2	-14.6	i	-8.7
CCOC(=O)N1CCN(C(=O)c2ccc(CS(=O)Cc3ccccc3Cl)o2)CC1 (stereo not drawn)	-2.0	-0.2	-9.2	4.4	-0.4	-12.0	i	-6.4
COc1ccccc1Nc1ccc(S(=O)(=O)N2CCCCC2)cc1[N+](=O)[O-]	-0.2	-7.4	-10.4	-2.0	-7.3	-12.6	i	-14.1
CCOC(=O)Cn1c(C(C)=O)nc2ccccc21	-2.2	6.3	0.6	-15.1	-7.3	-15.0	i	-14.0

Structures listed so far that contain a thiophene ring, fused or not:
SMILES	MT1-MMP act inh	MT1-MMP act inh RFP	CSC inhib	Env fusion inh	eIF4H inh	UUG fidelity	Rce1 inhib	PABP polyA inh
Cc1csc(SCC(=O)Nc2sc3c(c2C#N)CCC3)n1	x	x	x	x	8.2	-9.3	i	6.9
C=CCn1c(SCC(=O)C(C)(C)C)nnc1-c1cccs1	2.8	-3.4	-1.0	-1.7	8.1	-7.2	i	-1.4
CC(Sc1nnc(Cc2cccs2)n1C1CCCCC1)C(N)=O (stereo not drawn)	-9.4	-0.7	-8.1	x	-5.9	-21.4	i	-5.8
CCCCCn1cnc2sc(-c3ccccc3)cc2c1=O	-3.7	-3.4	25.7	-150.7	-5.9	-31.2	i	-8.3
O=C(NC1CCCC1)C(c1ccsc1)N(Cc1ccccc1)C(=O)Cc1cccs1 (stereo not drawn)	-31.9	-20.2	11.3	x	-11.4	23.2	i	-11.6
Cc1ccc(C(=O)N2CCN(Cc3nc4sc5c(c4c(=O)[nH]3)CCCC5)CC2)cc1	7.0	-6.7	2.6	-5.2	-5.4	0.5	i	-0.5
Cc1cccn2cc(CCNS(=O)(=O)c3cccs3)nc12	-7.2	3.1	14.4	-2.6	6.6	17.5	i	-1.1
